# RecA intein inh: blocks M. tuberculosis RecA intein splicing. P9WHJ3. cell-free RecA intein splicing, fluorescence. inhibition, %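 (about 9 µM by stock and volumes)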. 290,000 compounds, 0.75% hits. AID 2221; in the data active = inhibition above about 30%; inconclusive = no clear call, values can overlap the other calls;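 note: 0% = vehicle wells and 100% = reference inhibitor control wells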
# Target sequence (P9WHJ3 whole entry, looked up): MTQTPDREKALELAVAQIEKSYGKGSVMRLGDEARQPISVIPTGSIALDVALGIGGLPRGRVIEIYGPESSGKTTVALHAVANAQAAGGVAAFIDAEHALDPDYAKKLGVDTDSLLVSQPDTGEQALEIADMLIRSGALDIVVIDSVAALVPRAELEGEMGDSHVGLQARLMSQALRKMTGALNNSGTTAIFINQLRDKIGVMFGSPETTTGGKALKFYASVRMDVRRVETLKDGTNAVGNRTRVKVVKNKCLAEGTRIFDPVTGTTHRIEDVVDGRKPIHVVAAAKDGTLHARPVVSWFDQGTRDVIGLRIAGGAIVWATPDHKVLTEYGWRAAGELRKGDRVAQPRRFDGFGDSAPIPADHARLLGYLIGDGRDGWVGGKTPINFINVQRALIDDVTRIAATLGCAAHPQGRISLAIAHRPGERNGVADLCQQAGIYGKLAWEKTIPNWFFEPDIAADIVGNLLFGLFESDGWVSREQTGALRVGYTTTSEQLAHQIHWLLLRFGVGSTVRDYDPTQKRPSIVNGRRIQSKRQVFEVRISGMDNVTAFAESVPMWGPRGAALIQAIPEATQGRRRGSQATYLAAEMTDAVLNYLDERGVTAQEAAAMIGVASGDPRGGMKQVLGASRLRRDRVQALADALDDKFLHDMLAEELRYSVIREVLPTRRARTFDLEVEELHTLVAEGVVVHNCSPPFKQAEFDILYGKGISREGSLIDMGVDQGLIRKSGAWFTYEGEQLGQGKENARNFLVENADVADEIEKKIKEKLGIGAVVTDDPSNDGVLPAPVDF
# YopH inh: inhibitors of Yersinia enterocolitica YopH tyrosine phosphatase. fluorescence Ex485/Em525. inhibition, %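 (about 10 µM by stock and volumes)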. 140,000 compounds, 0.16% hits. AID 898;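 active = inhibition of 50% or more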;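 note: controls were vehicle for no effect and minimum signal wells for full effect; inactives centre near -20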
# Mtb H37Rv: M. tuberculosis H37Rv growth inhibitors, H37Rv strain (AID 1626) | inhibition, % at 10 µM; hits with a dose series show IC50 in µM | M. tuberculosis H37Rv growth inhibition; higher % means a stronger effect | 220,000 compounds, 0.95% hits;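 active = confirmed in a dose series; inconclusive = inhibition above 80% but not taken into the dose series; inactive = below 80% or under 30% at every dose of the series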;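 note: bacteria incubated seven days before Alamar blue readout; 0% = bacteria only wells and 100% = bacteria with antibiotic wells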
# Mtb betalactam: beta-lactam sensitization of Mtb H37Rv | M. tuberculosis H37Rv growth with meropenem, percent inhibition; hits of this screen are not shown here | inhibition, % at 25 µM | 330,000 compounds, 0.27% hits;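 active = about 74% or more and at least 40 points above the plate without the antibiotic, then above 30% in a dose series; inconclusive = first-round hits that could not be retested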;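 note: growth measured after seven days incubation then overnight dye step; 0% = bacteria only wells and 100% = bacteria with antibiotic; twin plates without the antibiotic show which effects depend on it; some results filed as inactive read as strong as hits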
# Arbovirus inh: blocks arbovirus infection | 200,000 compounds, 0.37% hits | arbovirus infection cell-based antiviral screen | AID 1251 | inhibition, % at 10 µM;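 active = inhibition from about 30%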;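 note: bluetongue infection of BSR cells; cell survival read as ATP light after 72 h; 0% = infected wells without compound and 100% = uninfected wells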
# Arbovirus inh repeat: recorded beside Arbovirus inh, whose call it bears; inhibition, %; measured here: 10K subset replicate screen; many hits read low in the repeat;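 first of two repeat runs on a subset; 0% = infected and 100% = uninfected wells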
# * marks the source's active call; other numbers are inactive results; ? = inconclusive; nt = not tested or not shown.
SMILES,RecA intein inh,YopH inh,Mtb H37Rv,Mtb betalactam,Arbovirus inh,others
CCOc1ccc(C(=O)CCc2nc3ccccc3s2)cc1,7.6,-6.9,8.0%,11.1,8.7,
COC(=O)CC(N)c1ccc(OC)c2ccccc12 (configuration not stated),-0.5,6.7,1.3%,7.7,1.7,
COc1ccc(NC(=O)c2ccc3nc(C)sc3c2)cc1,2.1,nt,nt,17.6,nt,
CC1=C(C(=O)Nc2ccccc2C)C(c2ccccc2)NC(=O)N1 (configuration not stated),-0.8,-46.7,-4.4%,-2.4,-1.6,Arbovirus inh repeat=-3.4
Cc1cc(Br)cc(C)c1OCC(=O)NNC(=O)CCC(=O)NCc1ccccc1,-2.4,nt,1.0%,-7.2,-0.9,
CC(CCCC(C)(C)O)NC(=O)c1cc(COc2ccc3ncccc3c2)on1 (configuration not stated),-0.5,nt,6.6%,-0.1,17.0,
CCNC(=O)C(=O)N/N=C/c1cc([N+](=O)[O-])ccc1O,0.8,nt,-11.4%,6.2,10.1,
C/C(=N\NS(=O)(=O)c1ccc([N+](=O)[O-])cc1)c1ccc2c(c1)OCO2,0.3,nt,nt,1.6,nt,
N#CC(C#N)=Cc1cn(-c2ncc(C(F)(F)F)cc2Cl)c2ccccc12,-0.5,-48.5,-8.0%,0.7,-2.5,
CC(C)Cc1nc2oc3c(Cl)ncnc3c2c2c1CCC2,8.2,-31.6,6.5%,86.5,-13.5,
COc1ccc(C(=O)CCC(=O)Nc2cccc(Cl)c2)cc1,-1.1,nt,3.7%,-7.5,4.0,
COc1ccc(CN(C(=O)CSc2nnc(-c3ccc(F)cc3)o2)c2ccc(F)cc2)cc1,5.8,-39.1,-3.5%,-7.8,30.6*,
COc1ccc(/C(=N\Nc2ccccc2C(=O)O)c2ccccc2)cc1,2.7,nt,20.3%,18.3,12.3,
COc1cc(OC)cc(C(=O)/C=C2\Sc3ccccc3N2C)c1,-12.7,nt,-9.6%,0.7,-5.1,
Cc1ccc(S(=O)(=O)N(CC(=O)NCC2CCCO2)c2cccc([N+](=O)[O-])c2)cc1 (configuration not stated),-0.4,nt,4.8%,2.5,5.6,

# Continued, starting with the last 3 of the part before.
SMILES,RecA intein inh,YopH inh,Mtb H37Rv,Mtb betalactam,Arbovirus inh,others
COc1ccc(/C(=N\Nc2ccccc2C(=O)O)c2ccccc2)cc1,2.7,nt,20.3%,18.3,12.3,
COc1cc(OC)cc(C(=O)/C=C2\Sc3ccccc3N2C)c1,-12.7,nt,-9.6%,0.7,-5.1,
Cc1ccc(S(=O)(=O)N(CC(=O)NCC2CCCO2)c2cccc([N+](=O)[O-])c2)cc1 (configuration not stated),-0.4,nt,4.8%,2.5,5.6,
CC1CC(C)CN(C(=O)C2CC(=O)N(c3ccc(F)cc3)C2)C1 (configuration not stated),-0.6,nt,nt,-0.4,nt,
COc1cc(CN2CCCCCC2)cc([N+](=O)[O-])c1O,-0.1,nt,nt,-5.9,nt,
Cc1ccc(C2(C)NC(=O)N(CC(=O)Nc3cc(S(=O)(=O)N4CCOCC4)ccc3C)C2=O)cc1 (configuration not stated),-0.2,-34.3,0.9%,6.9,3.4,
O=C(NCc1ccco1)c1cc2cc3ccc(Cl)cc3nc2o1,0.9,-106.2,5.2%,66.2,-33.1,
Nc1c(C(=O)O)sc2nc(-c3ccccc3)cc(-c3ccccc3)c12,-3.5,nt,-4.8%,-4.6,nt,
CC12CCC(=O)N1C(C(=O)O)Cc1c2[nH]c2ccccc12 (configuration not stated),-2.5,-43.1,nt,0.5,1.9,
CCN(CC)S(=O)(=O)c1cccc(C(=O)OCC(=O)c2ccc3c(c2)NC(=O)CO3)c1,nt,-25.0,-4.0%,1.4,2.4,
Cc1cc(C(=O)Nc2nc3c(C)cccc3s2)c(C)o1,-1.2,-42.9,-8.2%,-2.1,2.4,
CCN(CC)c1ccc2cc(-c3nnc(-c4ccccc4)o3)c(=O)oc2c1,-27.7,-3.2,2.7%,6.3,-19.2,
CCN1CCN(S(=O)(=O)c2cc(C(=O)O)ccc2Cl)CC1,-3.4,nt,14.3%,-8.3,nt,
O=C(O)CSCC(=O)Nc1ccc(Br)c(C(F)(F)F)c1,1.5,nt,-14.7%,-5.2,nt,
CCOP(=O)(OCC)C(Nc1ccccc1)c1cc(OC)ccc1OC (configuration not stated),-0.5,-21.7,0.7%,2.4,-0.6,
O=C(Nc1ccc(-c2nc3ncccc3o2)cc1)c1ccc(Br)o1,-4.9,-15.3,-5.6%,-5.2,0.6,
CC(C)(C)OC(=O)[C@H]1[C@H](c2ccc([N+](=O)[O-])cc2)C2(C(=O)c3ccccc3C2=O)C2c3ccccc3C=NN21 (some centres not stated),9.0,-20.2,-0.3%,3.1,2.3,
O=C(N/N=C/c1ccncc1)c1cc2ccccc2o1,-0.8,-10.3,14.0%,-0.5,-8.6,
O=C(NC1CC(=O)N(c2cccc(F)c2)C1)N1CCN(C(=O)c2ccco2)CC1 (configuration not stated),-1.5,nt,nt,-6.9,nt,
CCn1c(O)c(C=NC2CCCC2)sc1=S,4.1,-3.4,0.2%,0.9,5.8,
[2H]C(CCOS(N)(=O)=O)c1ccc(C(C)(C)C)cc1 (configuration not stated),-2.8,nt,nt,25.3,nt,
CC(=O)Nc1cccc(C(=O)OC(C)C(=O)NCc2ccc3c(c2)OCO3)c1 (configuration not stated),-0.9,nt,nt,0.6,nt,
CCC(=O)Nc1ccc(-c2nc3ccccc3c(=O)o2)cc1,3.2,nt,18µM*,nt,-2.2,
O=C1CCC([N+](=O)[O-])C(c2ccc(Cl)cc2Cl)N1 (configuration not stated),1.7,-16.1,8.2%,-6.0,2.9,
CCOc1ccc(C(=O)COC(=O)c2cc([N+](=O)[O-])ccc2N2CCOCC2)cc1,-2.1,nt,nt,1.2,nt,
Fc1ccc(Cl)cc1/C=N/n1cnnc1SCc1ccccc1,3.8,-12.6,-5.9%,-1.5,-2.9,
N#Cc1c(-c2ccc([N+](=O)[O-])cc2)nc2n(c1=O)CCS2,1.5,nt,nt,4.0,nt,
CC(C)(C)NC(=O)NC(=O)COC(=O)c1cccc(S(=O)(=O)N2CCCCC2)c1,-2.9,-13.4,-3.8%,-1.4,6.7,
CC1=C(/C=C/C(C)=C/C=C/C(C)=C\C(=O)O)C(C)(C)CCC1,7.4,nt,-10.9%,-6.1,nt,
COc1ccc(CN(CC(=O)NCc2ccc3c(c2)OCO3)C(=O)c2csnn2)cc1,-1.9,nt,nt,-3.0,nt,
CCn1c(SCC(=O)Nc2ccc3c(c2)OCO3)nnc1-c1cnccn1,2.1,-29.4,6.6%,-1.2,-0.6,
C#CC1(O)CC(C)N(C)C(C)C1 (configuration not stated),0.3,3.4,-6.9%,1.7,3.3,
Cc1cccc(C)c1NC(=O)NN=C1CCCCC1,-1.2,nt,-0.8%,-4.3,nt,
Cn1cccc1CNC(=O)Nc1ccc(Cl)c(Cl)c1,-0.2,-12.7,-7.5%,-5.6,-4.8,
O/N=C/c1ccc(OCc2ccccc2F)c(Cl)c1,7.1,-16.4,1.6%,-6.3,-16.0,
COc1ccc(C(=O)NNC(=S)NC(=O)c2ccccc2)cc1,7.5,nt,nt,95.8,nt,
CCn1ncc(Cl)c1C(=O)NC(=S)Nc1c(C)cc(C)cc1[N+](=O)[O-],2.6,-18.9,3.4%,5.2,5.3,
Cc1ccc(-c2cc(-c3ccc(C)cc3)[n+](C)o2)cc1,-6.8,-26.4,-0.9%,-6.3,10.3,
N#Cc1nc(-c2ccccc2)oc1NCC1CCCO1 (configuration not stated),0.0,-21.1,3.1%,4.2,-0.6,
c1cc2c(cc1Cn1cnnn1)OCO2,0.4,-24.6,-1.7%,0.1,2.7,
COc1cccc(C2CC(c3ccc(Cl)cc3)Nc3nc(N)nn32)c1 (configuration not stated),1.0,-24.4,-4.8%,-0.4,5.0,Arbovirus inh repeat=4.2
Cc1ccc(CCNC(=O)C2CCN(S(=O)(=O)c3ccc4c(c3)NC(=O)CO4)CC2)cc1,0.9,nt,nt,-8.4,nt,
CC(C)CNC(=O)C(=O)NCc1ccccn1,0.7,nt,-3.0%,-2.8,-5.8,
COc1cc2c(cc1OC)C(c1cccs1)N(C(=O)c1ccncc1)CC2 (configuration not stated),1.5,nt,2.3%,-7.0,-10.0,
CCCCc1nc(Cl)c(C#N)c2c1CSC(C)(C)C2,5.9,-27.2,9.5%,-2.4,7.5,
CC(=O)Nc1ccc(S(=O)(=O)NCCC(=O)OCC(=O)c2ccc(F)c(F)c2)cc1,-1.2,nt,nt,-10.6,nt,
CCOc1ccc(C(=O)NCc2cccnc2)cc1[N+](=O)[O-],-1.3,nt,-3.8%,0.2,-4.6,
CCCOC(=O)c1ccc(S(N)(=O)=O)o1,-1.6,-45.2,0.7%,3.2,1.1,
COC(C[C@@H](O)C[C@H](O)[C@@H](C)OCc1ccccc1)OC,-3.1,nt,-8.4%,nt,nt,
Cc1ccc(NS(=O)(=O)c2cccc(C(=O)N3CCCCCCC3)c2)cc1,-0.7,nt,nt,-2.4,nt,
O=C1CC(c2ccccc2)Cc2nc(NC3CC3)ncc21 (configuration not stated),-4.0,nt,-4.7%,-3.8,-0.6,
COc1ccc(Cn2c(-c3ccc(OC)cc3)nc3ccccc32)cc1,5.8,-19.4,nt,-2.6,-18.7,
CN(C)CCN(C(=O)c1ccc2c(c1)CCCC2)c1nc2c(F)cccc2s1,23.3,nt,nt,-5.4,nt,
CC1CCN(C(=O)Cn2cc(C#N)c3ccccc32)CC1,2.0,6.2,-68.2%,-6.2,2.5,
Cc1cc(=O)oc2cc(OCC3CC(c4ccc(Cl)cc4)=NO3)ccc12 (configuration not stated),-1.3,-10.4,3.6%,-1.0,-14.4,
O=C(CSc1nnc(COc2cccc3cccnc23)o1)c1ccc(F)cc1,1.6,-38.3,-1.3%,6.7,nt,
O=C(NC(Cc1ccccc1)c1ccc2c(c1)OCCCO2)c1ccccc1 (configuration not stated),-0.6,-6.6,3.2%,-6.9,0.8,
COc1ccc(N2CCN(S(=O)(=O)CCNC(=O)/C=C/c3ccc4c(c3)OCO4)CC2)cc1,-5.3,nt,nt,-4.6,nt,
C/C(=N\N1CCCCCC1)c1c(O)n(C)c(=O)n(C)c1=O,2.4,nt,-4.9%,-11.1,nt,
CCn1cc(C2=NC(C)(C)CO2)c2ccccc21,3.7,-19.2,-2.8%,nt,6.1,
Cc1cccc(-n2c(-c3ccoc3C)n[nH]c2=S)c1,-1.9,-34.0,4.5%,-5.1,3.2,
Cc1ccc(SCc2ccc(C(=O)Nc3cc([N+](=O)[O-])ccc3C)cc2)cc1,-1.8,-53.9,7.0%,99.1,-19.5,
OCC[C@H]1C[C@H](O)[C@@H](O)[C@@]2(CCCCO2)O1,-1.1,-29.4,-8.1%,-2.2,-2.4,
# Further structures follow:
SMILES,RecA intein inh,YopH inh,Mtb H37Rv,Mtb betalactam,Arbovirus inh,others
Cc1ccc2[nH]c(CCN(C)C)c(CC#N)c2c1,0.5,-21.9,-4.3%,-6.0,-7.9,
COC(=O)C1=C(C)OC(N)=C(C#N)C1c1cc(C)sc1C (configuration not stated),-0.5,-1.9,-0.9%,-2.6,10.6,
C=CCNc1nc2ccccc2nc1NS(=O)(=O)c1cccs1,-2.3,-60.9,3.7%,0.3,5.5,
CC1=C(C(=O)O)N2C(=O)C(NC(=O)c3ccccc3Cl)C2SC1 (configuration not stated),-1.6,nt,nt,?,nt,
COc1ccccc1S(=O)(=O)Cc1ccc(C(=O)NC(C)c2ccc3c(c2)OCCO3)o1 (configuration not stated),-3.1,-12.4,-6.3%,2.1,1.9,
Cc1ccc(NC(=O)COC(=O)COc2cccc3c2OC(C)(C)C3)c(C)c1,-3.2,nt,nt,-0.4,nt,
Cc1ccc(NC(=O)c2oc3ccc(S(=O)(=O)N4CCC5(CC4)OCCO5)cc3c2C)cc1C,-0.9,-5.8,0.5%,2.7,3.0,
CCNc1nc(NCC)n2c(SCC(=O)NCC3CCCCC3)nnc2n1,0.4,-26.5,0.8%,-0.6,4.1,
O=C(CSc1nnc(CNC(=O)c2ccccc2)o1)NCc1ccc(F)cc1,-4.2,nt,nt,?,nt,
N#Cc1ccccc1NC(=O)COC(=O)c1ccc(F)cc1F,-1.7,nt,nt,1.6,nt,
CCOc1ccccc1Oc1coc2cc(OC)ccc2c1=O,3.0,3.8,4.3%,-0.1,3.4,

# Three consecutive records out of the list so far, quoted:
SMILES,RecA intein inh,YopH inh,Mtb H37Rv,Mtb betalactam,Arbovirus inh,others
COc1ccc(NC(=O)c2ccc3nc(C)sc3c2)cc1,2.1,nt,nt,17.6,nt,
CC1=C(C(=O)Nc2ccccc2C)C(c2ccccc2)NC(=O)N1 (configuration not stated),-0.8,-46.7,-4.4%,-2.4,-1.6,Arbovirus inh repeat=-3.4
Cc1cc(Br)cc(C)c1OCC(=O)NNC(=O)CCC(=O)NCc1ccccc1,-2.4,nt,1.0%,-7.2,-0.9,

# This is a subset; count on the stated rates, not on these rows.
